mIDH1 inhibitor: inhibitors of human mutant IDH1 R132H. O75874. IDH1-R132H enzyme, NADPH consumption, diaphorase/resazurin fluorescence. Potency, µM (top dose mostly 76.6 µM), for the others: at the highest dose activity change, negative = inhibition, most hits filed as inhibitors. 0.093% of 390,000 active. AID 602179; further: potency means the concentration at half of the fitted maximal effect; on the % scale 0 is the no-effect control and ±100 the full control effect; nearly all actives have a fitted effect of over 65% in size
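IDH1-R132H (0.5 ug/mL) preincubated 30 min with compound, then NADPH (0.016 mM) and alpha-KG (2 mM) added; 80 min at RT, pH 7.5. Remaining NADPH coupled via diaphorase/resazurin to fluorescence (540/590 nm); concentration-response curves normalized to no-enzyme control.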
HP1b binding inh: blocks HP1-beta chromodomain binding to methylated histone tails | AlphaScreen HP1-beta / biotin-H3K9me3 peptide binding | Potency, µM (highest dose often 114 µM), for inactives: at the top dose activity change, negative = inhibition, hits mostly inhibitors | 0.56% of 390,000 active | AID 540317; further: potency means the concentration at half of the fitted maximal effect; nearly all actives have a fitted effect of over 70% in size; inactives centre near 23
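HP1-beta protein (50 nM final) preincubated 30 min at room temperature with biotinylated H3(1-18)K9me3 peptide (50 nM) in PBS pH 7.4, 0.01% Tween-20, then compound added for 30 min. AlphaScreen streptavidin donor/nickel chelate acceptor beads (10 ug/mL final), 30 min dark, luminescence read.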
PI4K2A inh: inhibitors of human PI4K2A | 0.13% of 420,000 active | activity change, negative = inhibition, % at 76.9 µM | purified PI4K2A, ADP-Glo luminescence, 1 h; stronger effect = lower value | Q9BTU6; in the data active means activity change below about -50%; inconclusive means mostly about -30% to -49%;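 further: -100% = wells without enzyme as full effect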
Target sequence (Q9BTU6 whole entry, looked up): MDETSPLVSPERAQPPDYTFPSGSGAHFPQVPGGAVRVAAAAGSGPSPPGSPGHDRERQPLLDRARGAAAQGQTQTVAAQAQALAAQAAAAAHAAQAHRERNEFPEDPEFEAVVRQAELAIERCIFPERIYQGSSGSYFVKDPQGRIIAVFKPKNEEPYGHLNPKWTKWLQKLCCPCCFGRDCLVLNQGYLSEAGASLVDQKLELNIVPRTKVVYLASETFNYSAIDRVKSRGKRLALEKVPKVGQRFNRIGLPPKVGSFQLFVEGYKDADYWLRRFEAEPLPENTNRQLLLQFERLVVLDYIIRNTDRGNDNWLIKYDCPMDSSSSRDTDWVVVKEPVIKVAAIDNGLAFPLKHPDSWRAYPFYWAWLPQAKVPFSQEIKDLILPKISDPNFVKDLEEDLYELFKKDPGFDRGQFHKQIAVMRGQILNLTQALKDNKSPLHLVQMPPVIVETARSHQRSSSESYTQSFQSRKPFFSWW
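PI4K2A activity was measured by ADP-Glo luminescence: enzyme (4 ug/mL stock) and phosphatidylinositol (1.2 mM stock) in Tris pH 7.5/MgCl2/EGTA/Triton X-100 buffer were reacted with ATP (300 microM stock) for one hour at ambient temperature.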
TrxR1 substrate: rat thioredoxin reductase 1 substrate activity | 0.01% of 390,000 active | purified TrxR1 substrate turnover, NADPH consumption readout | Potency, µM (doses to about 114 µM), for the others: at the highest dose activity change, negative = substrate turnover | O89049 | AID 588456; further: potency means the concentration at half of the fitted maximal effect; on the % scale 0 is the no-effect control and ±100 the full control effect; nearly all actives have a fitted effect of over 50% in size
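Rat TrxR1, dispensed at 90 nM, was prereduced with 400 uM NADPH (final) for 5 min at ~22 deg C, then incubated with compound 15 min before 400 uM selenite. A first-read NADPH fluorescence drop versus no-compound background flagged substrates.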
rTrxR1 inhibitor: rat TrxR1 inhibition. O89049. recombinant rTrxR1, NADPH fluorescence consumption, selenite substrate. Potency, µM (titrated, usually from 114 µM), for inactives: at the top dose activity change, negative = inhibition, actives largely listed as inhibitors. 1% of 390,000 active; further: potency means the concentration at half of the fitted maximal effect; on the % scale 0 is the no-effect control and ±100 the full control effect; nearly all actives have a fitted effect of over 65% in size
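Rat TrxR1 (90 nM in the dispensed reagent) was pre-reduced with 400 uM NADPH for 5 min at room temperature, then incubated with compound for 15 min. After 400 uM selenite was added, NADPH fluorescence (Ex 340/Em 450 nm) was followed for 8 min.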
Pin1 inhibitor: inhibitors of human Pin1; Pin1 FP peptide displacement, HiFluor488, 10 min; Potency, µM (titrated, usually from 115 µM), without a hit: at the top dose activity, negative = inhibition, actives largely listed as inhibitors; 0.009% of 390,000 active; AID 504891; active means well fitted inhibition curve with a large enough effect in the polarisation, with a control signal flat, not every such curve was filed as active; inconclusive means small, poorly fitted or top-dose-only effect, or effect the other way, or a change in a side signal; inactive means no such curve, though single readings can be large or run the other way; the % refers to the polarisation; further: potency means the concentration at half of the fitted maximal effect; on the % scale 0 is the no-effect control and ±100 the full control effect
Target sequence (Q13526 whole entry, looked up): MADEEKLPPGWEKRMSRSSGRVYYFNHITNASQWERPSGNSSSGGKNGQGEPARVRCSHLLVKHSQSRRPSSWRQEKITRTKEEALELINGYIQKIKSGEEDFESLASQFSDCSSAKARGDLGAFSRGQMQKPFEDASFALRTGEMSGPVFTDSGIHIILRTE
PGK inhibitor: inhibitors of T. brucei phosphoglycerate kinase; P07378; PGK/GAPDH coupled, Kinase-Glo luminescence, 60 min; Potency, µM (doses to about 57.5 µM), for inactives: at the top dose activity change, negative = inhibition, actives largely listed as inhibitors; 0.043% of 380,000 active; AID 602233; further: potency means the concentration at half of the fitted maximal effect; on the % scale 0 is the no-effect control and ±100 the full control effect; nearly all actives have a fitted effect of over 60% in size
Target sequence (P07378 whole entry, looked up): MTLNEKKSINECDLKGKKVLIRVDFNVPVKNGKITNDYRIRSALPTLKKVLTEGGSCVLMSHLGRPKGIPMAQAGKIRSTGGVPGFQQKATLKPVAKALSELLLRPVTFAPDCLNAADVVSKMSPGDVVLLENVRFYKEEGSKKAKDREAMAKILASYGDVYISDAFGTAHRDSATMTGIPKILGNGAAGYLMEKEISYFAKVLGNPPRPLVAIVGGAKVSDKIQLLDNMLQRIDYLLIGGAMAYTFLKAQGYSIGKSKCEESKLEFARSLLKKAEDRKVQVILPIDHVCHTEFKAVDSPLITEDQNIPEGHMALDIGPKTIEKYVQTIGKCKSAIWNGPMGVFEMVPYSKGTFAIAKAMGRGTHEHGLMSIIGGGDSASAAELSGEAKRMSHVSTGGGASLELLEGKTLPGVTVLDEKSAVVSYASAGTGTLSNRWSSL
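Recombinant glycosomal PGK reaction used 1,3-bisphosphoglycerate generated in-well by GAPDH (100nM final) in 100mM TEA pH 7.6, 5mM MgCl2, 0.01% Tween-20. After 60 minutes at room temperature, ATP was read by Kinase-Glo Plus luminescence end-point.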
GLS inhibitor: blocks human kidney-isoform glutaminase activity | O94925 | GLS enzymatic activity, qHTS titration | Potency, µM (highest dose often 45.5 µM), without a hit: top-dose activity change, negative = inhibition, hits mostly inhibitors | 0.21% of 410,000 active | AID 624170; further: potency means the concentration at half of the fitted maximal effect; on the % scale 0 is the no-effect control and ±100 the full control effect
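Human kidney-isoform GLS in 45 mM KH2PO4 pH 8.2, 0.02% Tween-20, with compound, started with 1mM L-Glutamine (added stock). Glutamate oxidase/HRP/Amplex red coupled fluorescence read at start and after 30 min at RT.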
Numbers without * were called inactive; i = inactive; ? = inconclusive; nt = not tested or not shown; & = joins results of further samples; [ ] = dose if it differs, or a comment. Unless noted, the call rests on the fitted dose curve; in most records, active means well fitted curve in the direction sought with a large enough effect; inconclusive means small, poorly fitted or top-dose-only effect, or another doubt; inactive means no such curve, though single readings can be large; an effect the other way counts as inactive or inconclusive. These rows are one share of the data; count on the stated rates, not on these rows.

SMILES | mIDH1 inhibitor | HP1b binding inh | PI4K2A inh | TrxR1 substrate | rTrxR1 inhibitor | Pin1 inhibitor | PGK inhibitor | GLS inhibitor
O=C(Cn1cnc2sc3c(c2c1=O)CCCC3)NCC(=O)Nc1ccccc1F | 15% | 31% | 1 | 4% | 14% | 25% | -2% | -3%
Cc1ccc(C)c(NS(=O)(=O)c2cc(C(=O)Nc3ccccc3-c3ccccc3)ccc2C)c1 | 1% | 29% | -5 | 16% | 47%[activator] | 8% | -8% | 5%
CCOCC(=O)OCC(=O)NC12CC3CC(CC(C3)C1)C2 | 0% | 46%[activator] | 0 | -1% | 7% | -8% | -2% | -5%
Cc1ccc(C)c(N2CCN(C(=O)Nc3cn(CC(C)C)c(=O)c4ccccc34)CC2)c1 | 7% | 24% | -21 | 37%[activator] | 34% | 14% | i | 2%
CCN(CC)CCCN1C=C2C(=O)C(C)(OC(=O)CCC(=O)OC)C(=O)C=C2C=C1C1CC1 (stereo unspecified) | 23% | 11% | -23 | -1%[57.1 µM] | 15%[57.1 µM] | -10% | -7% | 2%
CCO/C=C1/C(=O)N(C)C(=O)c2cc(OC)ccc21 | -1% | 28% | 1 | 8%[57.1 µM] | -23% | ? | -4% | 15%
CCN(CCCNC(=O)CCC(=O)N1CCOc2ccccc21)Cc1ccccc1 | -3% | 23% | 6 | 2%[57.1 µM] | 14%[57.1 µM] | 1% | 9% | 0%
O=C(OCC(=O)N1CCN(S(=O)(=O)c2ccc(Cl)cc2)CC1)C1CC1 | -1% | 27% | -2 | 2% | 8% | 8% | 0% | 7%
O=C(O)c1cc2nc(-c3cccs3)cc(C(F)(F)F)n2n1 | 4% | 20% | 6 | 7%[57.1 µM] | -6%[57.1 µM] | 1% | -26% | ?
CC(=O)Cc1nsc(NC(=O)c2ccc(COc3ccccc3)o2)n1 | 1% | 7% | 1 | -2% | -1% | 13% | 1% | 0%
CCOC(=O)N1CCN(c2cc(NCCO)c([N+](=O)[O-])c3nonc23)CC1 | 11% | 11% | -4 | 1%[57.1 µM] | 8%[57.1 µM] | 4% | -1% | 1%
COc1cccc(CNC(=O)Nc2cn(CC(C)C)c(=O)c3ccccc23)c1 | -5% | 21% | ? | 53%[activator] | 21% | -11% | i | -5%
O=C(O)c1cccc(Nc2nc3ccccc3nc2NS(=O)(=O)c2ccc(F)cc2)c1 | -14% | 8% | -2 | -12% | -9% | -7% | -6% | 15%
CC1CCN(C(=O)CCNC(=O)Cn2cnc3sc4c(c3c2=O)CCCC4)CC1 | 4% | 32% | -2 | 4%[57.1 µM] | 23%[57.1 µM] | 0% | -6% | 3%
Cc1ccc(S(=O)(=O)N2CCN(C(=O)COC(=O)/C=C/c3cccc([N+](=O)[O-])c3)CC2)c(C)c1 | -7% | 2% | 3 | -7% | 9% | 2% | i | 3%
COc1ccccc1N1CCN(CCOc2c(OC)cccc2OC)CC1 | 0% | 13% | 0 | 0% | 7% | 6% | 1% | 35%[activator]
CC(C)Cn1cc(NC(=O)NCc2cccc(Cl)c2)c2ccccc2c1=O | -20% | 28% | ? | 38%[activator] | 3% | -9% | -1% | -2%
O=C(O)c1cc2ccc3ccccc3c2oc1=O | -1% | 25% | 3 | 239%[activator][57.1 µM] | 53%[activator][57.1 µM] | 2% | -10% | -8%
COc1ccc2cc(C(c3nnnn3C3CCCC3)N3CCc4ccccc4C3)c(=O)[nH]c2c1 (stereo unspecified) | 4% | 13% | -1 | 0% | -3% | -12% | -9% | -1%
Cc1ccc(C(=O)Nc2ccc(C(=O)O)cc2)cc1S(=O)(=O)NCc1ccccc1 | 12% | 80%[activator] | -25 | -1%[57.1 µM] | 11%[57.1 µM] | -175% | -9% | -1%
Fc1ccc(C(c2nnnn2C2CCCC2)N2CCc3ccccc32)cc1 (stereo unspecified) | 3% | 7% | -2 | -4% | 16% | 0% | -8% | 26%
CC1CN(Cc2nc3c(c(=O)n(C)c(=O)n3C)n2Cc2ccccc2)CC(C)O1 (stereo unspecified) | -5% | 16% | 8 | 7%[57.1 µM] | 13%[57.1 µM] | -2% | -6% | -3%
O=C1N=c2ccccc2=C1c1sc(=S)n(-c2ccc(O)cc2)c1O | 11% | 7% | 2 | 2% | 4% | 1% | 2% | -2%
CCCN1CCN(C(=S)Nc2ccccc2C(F)(F)F)CC1 | 7% | 24% | 1 | -5% | ? | -7% | -4% | 24%
Cc1ccc2oc(=O)c(/C=C(\O)c3cccs3)nc2c1 | 2% | 22% | -2 | -5%[57.1 µM] | 5%[57.1 µM] | ? | -1% | 3%
c1ccc(COc2ccc(CN3CCN(c4ccccn4)CC3)cc2)cc1 | 3% | 4% | -8 | -2% | 2% | -1% | -6% | 5%
CC(C(=O)NCc1ccc2c(c1)OCO2)N1c2cccc3cccc(c23)S1(=O)=O (stereo unspecified) | -4% | 37%[activator] | -5 | 13%[57.1 µM] | 9%[57.1 µM] | 8% | 5% | 7%
OC(CN1CCN(Cc2ccccc2)CC1)Cn1c2ccccc2c2ccccc21 (stereo unspecified) | 6% | ? | 4 | -14% | -10% | 0% | i | 4%
Cc1ccc(NC(=O)c2ccc([N+](=O)[O-])s2)cc1S(=O)(=O)N1CCOCC1 | 1% | 16%[57 µM] | -27 | -4% | -2% | -18% | 3% | -2%
COC(=O)C1=CN(C(C)c2ccccc2)C=C(C(=O)OC)C1c1cc(OC)c(OC)c(OC)c1 (stereo unspecified) | -13% | 56% | 2 | 112%[activator] | 27% | -6% | -2% | 0%
O=C(N(c1ccccn1)c1ccccn1)C12CC3CC(CC(C3)C1)C2 | 6% | 10% | 2 | 10%[57.1 µM] | 9%[57.1 µM] | 1% | -6% | 6%
COc1cccc(-c2nn(C)c3sc(C(=O)NCc4ccccn4)cc23)c1 | 3% | 6% | -3 | 114%[activator] | 50%[activator] | ? | -1% | 0%
O=C(Nc1nnc(CCN2CCCCC2)s1)c1cccc(Cl)c1 | 5% | 14% | 0 | 8%[11.4 µM] | 26%[11.4 µM] | -2% | -3% | -3%
COc1ccc(C(=O)COC(=O)c2nn(C)cc2Cl)cc1 | -4% | -4% | 1 | 1% | 12% | -2% | 1% | -10%
COc1ccc(OC)c(NC(=O)C(C)N2c3cccc4cccc(c34)S2(=O)=O)c1 (stereo unspecified) | 5% | 27% | 0 | 8% | 20% | -2% | 1% | -2%
O=C(Nc1nc2n(n1)C(c1ccc(F)cc1)C=C(c1ccc(Cl)cc1)N2)c1ccco1 (stereo unspecified) | -2% | 19% | 0 | 0% | 12% | -9% | -6% | -4%
CCN(CC)c1ccc2cc(-c3nnc(-c4ccccc4)o3)c(=O)oc2c1 | -3% | 42%[activator] | 3 | 10%[57.1 µM] | 18%[57.1 µM] | ? | 0% | -7%
CCCCc1oc2ccccc2c1C(=O)c1cc(I)c(OCCN(CC)CC)c(I)c1 | 7% | 8% | -4&5&2 | -5%[57.1 µM] | -16%[57.1 µM] | 2% | -3% | 3%&-8%&13%
O=C1Cc2ccccc2C(=O)N1c1ccc(F)cc1Cl | 3% | 20% | -6 | 12% | -21% | 0% | i | 0%
OC(COc1ccc(Cl)cc1)CN1CCN(c2cccc(Cl)c2)CC1 (stereo unspecified) | 0% | 31% | -1 | -5% | 8% | 1% | i | -5%
COCCNC(=O)C1(S(=O)(=O)c2ccccc2)CC=CC1 | -7% | 37% | -5 | -2% | 14% | -1% | -2% | 13%
CC(=O)N1CCN(CC(O)Cn2c3ccccc3c3ccccc32)CC1 (stereo unspecified) | 0% | 60%[activator] | 4 | 2% | 18% | -4% | -10% | -9%
CCOC(=O)/C(=C\C=C1/Sc2ccccc2N1CC)C(C)=O | 6% | 11% | 6 | -27% | 7%[57.1 µM] | ? | i | -16%
CCN(CC)CCNc1nc2nonc2nc1NCCN(CC)CC | 0% | 49%[activator] | -2 | -15% | -17% | 2% | 0% | 9%
OC(COc1ccc(Cl)cc1)CSc1ccccn1 (stereo unspecified) | -5% | 45%[activator] | -2 | 1% | 27% | 3% | -2% | 0%
Cn1c(C(=O)Nc2cccc(C(F)(F)F)c2)cc2c(=O)n3ccccc3nc21 | -3% | 40%[activator] | 0 | 3% | 16% | -6% | 6% | -8%
O=C(Nc1nnc(Cc2ccccc2F)s1)c1ccccc1Cl | -7% | 11% | 6 | -2% | 13% | -7% | 8% | 2%
CC1(C)c2ccccc2N2CC(=O)N(CC(N)=O)C21C (stereo unspecified) | -3% | 18% | -9 | 12% | -1% | ? | nt | 7%
CCN1CCCC1CNS(=O)(=O)c1ccc(C(=O)Nc2ccccc2)cc1 (stereo unspecified) | 8% | 20% | -7 | -3%[57.1 µM] | 12%[57.1 µM] | 5% | -3% | 2%
O=C(CCC(=O)N1CCOc2ccc(Cl)cc21)NCCCN1CCN(Cc2ccccc2)CC1 | -1% | 29% | 0 | 5%[57.1 µM] | 13%[57.1 µM] | 2% | -1% | -2%
CC(=O)Cc1nsc(NC(=O)c2ccco2)n1 | -1% | 33% | 6 | 1% | -22% | 4% | -3% | 14%
CCN(CC)S(=O)(=O)c1ccc(-c2nnc(SCC(=O)Nc3nc(C)cs3)o2)cc1 | -5% | 36%[activator] | 0 | -1% | 24% | -2% | i[11.5 µM] | -5%
CN1CCNC(=O)C1CC(=O)NCC1(c2ccccc2)CCCCC1 (stereo unspecified) | -1% | 24% | -4 | 1% | -3% | 7% | 1% | -1%
O=C(O)/C=C/C(=O)Nc1ccc(O)cc1 | 13% | ? | -20 | -1% | 71µM* | nt | 1% | ?
COc1cc2cnc(-c3ccccc3)c(-c3cccc(C(F)(F)F)c3)c2cc1OC | 7% | 19% | -6 | ? | 46%[activator] | 8% | -9% | 0%
